# Bioassay records deposited in PubChem by Broad Institute.
# rRNA inh HTS: selective bacterial rRNA inhibition in E. coli. actives 1.6% (n = 350,000). E. coli WT GFP vs humanized-ribosome RFP mutants, fluorescence, 24 h; hits give low values; DMSO median 0, no signal -100. GFP signal change (wild-type ribosome), % (no concentration beside the values);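 active means significant combined selectivity score with lowered wild-type GFP, culture density cut under 30%, mutant RFP and density less affected; inactive means any of these conditions unmet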; further: one replicate is shown; some compounds called inactive have numbers as strong as hits
# FGF22 binding: FGF22 (human) thermal shift binding. Q9HCT0. recombinant FGF22 thermal shift, SYPRO orange fluorescence; percent of sucrose octasulfate shift, DMSO zero. calls only at 9.99 µM. actives 1.5% (n = 340,000);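 active means melting point raised past a set limit in the mean and every replicate; three in four hits are not shown here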
# Target sequence (Q9HCT0 whole entry, looked up): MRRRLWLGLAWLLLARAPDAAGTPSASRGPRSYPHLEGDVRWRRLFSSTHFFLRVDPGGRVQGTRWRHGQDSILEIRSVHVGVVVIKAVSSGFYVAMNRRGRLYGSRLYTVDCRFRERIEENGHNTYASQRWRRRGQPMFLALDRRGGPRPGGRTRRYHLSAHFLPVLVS
# rRNA inh HTS OD600: also measured in rRNA inh HTS; calls as there; OD600 change, %; measured here: OD600 growth;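 optical density of the mix in the first replicate; 0 = DMSO median and -100 = no signal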
# rRNA inh HTS RFP: further read-out of rRNA inh HTS, marked with its call; RFP signal change, %; measured here: RFP humanized mutant strains;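 first replicate; 0 = DMSO median and -100 = no signal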
# Active calls of the source: *; i = inactive. The list is partial; rates above refer to the full screens.
SMILES,rRNA inh HTS,rRNA inh HTS OD600,rRNA inh HTS RFP,FGF22 binding
COCC(=O)Nc1ccc2c(c1)C(=O)N(C)C[C@@H](OC)[C@H](C)CN(Cc1ccncc1)[C@@H](C)CO2,1.0,2.2,0.0,i
COc1ccc(S(=O)(=O)N(C)C[C@H]2Oc3c(NC(=O)c4nc5ccccc5s4)cccc3C(=O)N([C@H](C)CO)C[C@H]2C)cc1,4.2,7.8,2.7,i
C[C@@H]1CN([C@@H](C)CO)S(=O)(=O)c2ccc(C3=CCCC3)cc2O[C@H]1CN(C)C(=O)C1CCCCC1,-7.7,-29.1,0.9,i
CO[C@@H]1CN(C)C(=O)c2ccc(NS(C)(=O)=O)cc2OC[C@@H](C)N(C(=O)NC(C)C)C[C@H]1C,0.9,1.1,1.0,i
C[C@H](CO)N1C[C@H](C)[C@@H](CN(C)Cc2ccc(C(=O)O)cc2)Oc2c(NC(=O)c3ccc(-c4nccs4)cc3)cccc2C1=O,0.5,4.8,-1.6,i
CN1C(=O)c2cc(NC(=O)Cc3cccs3)ccc2OC[C@H]2O[C@H](CC(=O)O)CC[C@@H]21,4.8,4.1,-2.6,i
COc1ccc(NC(=O)Nc2cccc3c2O[C@@H](CN(C)C(=O)Nc2ccc(C(F)(F)F)cc2)[C@@H](C)CN([C@H](C)CO)C3=O)cc1,-2.0,1.3,1.4,i
C[C@@H]1CN([C@H](C)CO)C(=O)c2cc(C#CC3(O)CCCC3)cnc2O[C@@H]1CN(C)C,6.8,10.6,-1.1,i
COCC(=O)Nc1ccc2c(c1)C(=O)N(C)C[C@H](OC)[C@@H](C)CN(CCC(F)(F)F)[C@H](C)CO2,-2.4,2.4,0.0,i
CN1C(=O)c2cc(NC(=O)NC3CCCC3)ccc2OC[C@@H]2O[C@@H](CC(=O)NC3CCC3)CC[C@H]21,2.8,-7.9,2.6,i
CC(=O)N(C)C[C@@H]1Oc2ncc(-c3cccc(C#N)c3)cc2C(=O)N([C@@H](C)CO)C[C@@H]1C,1.8,17.8,-2.2,i
COc1ccc(S(=O)(=O)N(C)C[C@@H]2Oc3ccc(NC(=O)CCCN(C)C)cc3CC(=O)N([C@H](C)CO)C[C@@H]2C)cc1,-0.7,-8.6,-0.1,i

# Nine entries from above, with two lines to a compound.
# Values run as follows: rRNA inh HTS, rRNA inh HTS OD600, rRNA inh HTS RFP, FGF22 binding
COCC(=O)Nc1ccc2c(c1)C(=O)N(C)C[C@@H](OC)[C@H](C)CN(Cc1ccncc1)[C@@H](C)CO2
    1.0, 2.2, 0.0, i
COc1ccc(S(=O)(=O)N(C)C[C@H]2Oc3c(NC(=O)c4nc5ccccc5s4)cccc3C(=O)N([C@H](C)CO)C[C@H]2C)cc1
    4.2, 7.8, 2.7, i
C[C@@H]1CN([C@@H](C)CO)S(=O)(=O)c2ccc(C3=CCCC3)cc2O[C@H]1CN(C)C(=O)C1CCCCC1
    -7.7, -29.1, 0.9, i
CO[C@@H]1CN(C)C(=O)c2ccc(NS(C)(=O)=O)cc2OC[C@@H](C)N(C(=O)NC(C)C)C[C@H]1C
    0.9, 1.1, 1.0, i
C[C@H](CO)N1C[C@H](C)[C@@H](CN(C)Cc2ccc(C(=O)O)cc2)Oc2c(NC(=O)c3ccc(-c4nccs4)cc3)cccc2C1=O
    0.5, 4.8, -1.6, i
CN1C(=O)c2cc(NC(=O)Cc3cccs3)ccc2OC[C@H]2O[C@H](CC(=O)O)CC[C@@H]21
    4.8, 4.1, -2.6, i
COc1ccc(NC(=O)Nc2cccc3c2O[C@@H](CN(C)C(=O)Nc2ccc(C(F)(F)F)cc2)[C@@H](C)CN([C@H](C)CO)C3=O)cc1
    -2.0, 1.3, 1.4, i
C[C@@H]1CN([C@H](C)CO)C(=O)c2cc(C#CC3(O)CCCC3)cnc2O[C@@H]1CN(C)C
    6.8, 10.6, -1.1, i
COCC(=O)Nc1ccc2c(c1)C(=O)N(C)C[C@H](OC)[C@@H](C)CN(CCC(F)(F)F)[C@H](C)CO2
    -2.4, 2.4, 0.0, i

# Other structures follow:
SMILES,rRNA inh HTS,rRNA inh HTS OD600,rRNA inh HTS RFP,FGF22 binding
C[C@@H]1CN([C@@H](C)CO)C(=O)c2cc(NC(=O)CCCCCC(=O)Nc3ccccc3N)ccc2O[C@H]1CN(C)Cc1ccccc1,-2.1,-7.6,0.0,i
C[C@@H]1CN([C@@H](C)CO)S(=O)(=O)c2ccc(-c3ccc(C#N)cc3)cc2O[C@@H]1CN(C)C(=O)C1CC1,-1.1,-2.2,-2.4,i
C[C@@H]1COc2cc(NCCCN3CCOCC3)ccc2S(=O)(=O)N1,18.1,11.0,1.6,i
O=C(C[C@H]1CC[C@@H]2[C@H](COC[C@H](O)CN2C(=O)Nc2ccc(Cl)c(Cl)c2)O1)NC1CCC1,-56.8,-76.4,-14.8,i
COc1ccccc1-n1c(Cc2cccc3ccccc23)nnc1SCC(=O)O,0.1,3.0,5.8,i
C[C@@H]1CN([C@@H](C)CO)C(=O)c2cc(C#CC(C)(C)O)cnc2O[C@H]1CN(C)Cc1cncnc1,-0.3,1.8,-1.3,i
C[C@H](CO)N1C[C@H](C)[C@@H](CN(C)C(=O)Nc2cccc3ccccc23)Oc2ccc(NS(=O)(=O)c3ccccc3)cc2C1=O,2.2,5.7,2.4,i
O=C(N[C@@H]1CC[C@@H](CCNC(=O)c2cnccn2)O[C@@H]1CO)c1ccc2c(c1)OCO2,0.9,2.2,-0.8,i
CNC(=O)C[C@H]1CC[C@H]2[C@@H](COC[C@@H](O)CN2S(=O)(=O)c2cccc(Cl)c2)O1,1.3,4.8,2.5,i
C[C@H](CO)N1C[C@H](C)[C@H](CN(C)Cc2ccc(Oc3ccccc3)cc2)Oc2c(NS(=O)(=O)c3cn(C)cn3)cccc2C1=O,2.9,2.4,-1.9,i
C[C@H](NC(=O)C[C@@H]1C[C@H]2c3cc(NC(=O)C4CCC4)ccc3O[C@H]2[C@H](CO)O1)c1ccccc1,-3.7,-6.7,-1.5,i
C[C@H]1CCCCO[C@H](CN(C)S(=O)(=O)c2ccc(Cl)cc2)[C@@H](C)CN([C@@H](C)CO)C(=O)c2cc(NC(=O)Nc3ccc(F)cc3)ccc2O1,1.3,7.6,0.3,i
O=C(Nc1ccc2c(c1)OCO2)N[C@H]1CC[C@@H](CCNC(=O)C2CCCCC2)O[C@H]1CO,-0.1,-2.8,-0.3,i
COC(=O)C[C@@H]1C[C@@H]2c3cc(NS(=O)(=O)c4ccc(OC)cc4)ccc3O[C@@H]2[C@H](CO)O1,-2.8,-3.5,-0.2,i
COC(=O)C[C@H]1CC[C@H]2[C@H](COc3ccc(NC(=O)c4cccc(Cl)c4)cc3C(=O)N2C)O1,-4.6,-3.8,1.8,i
COCC(=O)Nc1ccc2c(c1)C(=O)N(C)C[C@H](OC)[C@@H](C)CN(Cc1ccncc1)[C@H](C)CO2,-1.3,-1.6,0.4,i
CC(=O)N(C)C[C@@H]1Oc2ncc(C#CC(C)(C)O)cc2C(=O)N([C@H](C)CO)C[C@@H]1C,5.3,0.7,-1.7,i
O=C(C[C@H]1C[C@H]2c3cc(NC(=O)NC4CCCC4)ccc3O[C@H]2[C@H](CO)O1)NCc1ccc(-c2ccccc2)cc1,0.6,-2.3,-0.6,i
CC(C)NC(=O)N(C)C[C@H]1OCCCC[C@@H](C)Oc2ccc(NS(=O)(=O)c3ccc(Cl)cc3)cc2C(=O)N([C@H](C)CO)C[C@H]1C,-0.1,-9.8,0.8,i
CC(C)CC#Cc1ccc2c(c1)O[C@@H](CN(C)Cc1cncnc1)[C@@H](C)CN([C@H](C)CO)S2(=O)=O,-3.4,-14.6,8.9,i
C[C@@H](NC(=O)C[C@@H]1C[C@@H]2c3cc(NC(=O)C4CCOCC4)ccc3O[C@@H]2[C@H](CO)O1)c1ccccc1,-2.8,-4.5,-6.0,i
O=C(C[C@@H]1C=C[C@@H](NC(=O)c2ccccn2)[C@H](CO)O1)NCc1cccc(F)c1,-1.6,-0.2,1.1,i
C[C@H]1CN([C@@H](C)CO)C(=O)c2cc(-c3ccccc3F)cnc2O[C@@H]1CN(C)Cc1ccccc1F,-8.6,-14.1,3.8,i
CO[C@H]1CN(C)C(=O)c2cc(NC(=O)c3ccccc3F)ccc2OC[C@@H](C)NC[C@H]1C,0.0,-0.3,2.2,i
Cc1ccc(S(=O)(=O)N(C)C[C@@H]2Oc3cc(-c4cccc(F)c4)ccc3S(=O)(=O)N([C@@H](C)CO)C[C@H]2C)cc1,-3.0,-5.6,-2.5,i
O=C(C[C@H]1C[C@H]2c3cc(NC(=O)C4CCOCC4)ccc3O[C@H]2[C@@H](CO)O1)NCc1ccncc1,2.4,4.7,-1.5,i
CC(=O)N(C)C[C@H]1Oc2ncc(C#C[C@@H](C)O)cc2C(=O)N([C@@H](C)CO)C[C@H]1C,5.1,14.8,-2.6,i
CCCN(C)C[C@H]1OCCCC[C@@H](C)Oc2ccc(NC(=O)Nc3c(C)noc3C)cc2C(=O)N([C@H](C)CO)C[C@@H]1C,-1.0,-4.4,0.7,i
O=C(c1cc2c(c(-c3cccc(-c4ccc(F)cc4)c3)n1)[C@@H](CCO)N(C(=O)c1ccc3c(c1)OCO3)C2)N1CCOCC1,7.8,-17.0,1.7,i
CC(=O)N[C@@H]1CC[C@@H](CCNC(=O)C2CCCC2)O[C@H]1CO,-2.5,1.8,0.7,i
COc1ccc(NC(=O)Nc2ccc3c(c2)C(=O)N([C@H](C)CO)C[C@@H](C)[C@H](CN(C)Cc2ccc(Oc4ccccc4)cc2)O3)cc1,6.0,4.5,-0.4,i
C[C@@H]1CN([C@@H](C)CO)C(=O)c2cc(C#CC3CC3)cnc2O[C@@H]1CN(C)C(=O)c1ccc(F)cc1,5.4,1.1,-0.7,i
O=C(C[C@@H]1CC[C@@H](NS(=O)(=O)c2ccccc2)[C@H](CO)O1)NCc1ccncn1,0.5,-1.1,-1.4,i
COC(=O)C[C@@H]1CC[C@H]2[C@@H](COc3ccc(NC(=O)c4cccs4)cc3C(=O)N2C)O1,2.4,-0.7,0.6,i
COc1ccccc1-c1cn(CC[C@@H]2CC[C@@H](NC(=O)CCN3CCCCC3)[C@H](CO)O2)nn1,5.1,3.6,-2.1,i
CCC(=O)N1C[C@H](O)COC[C@H]2O[C@H](CC(=O)NCC3CCCCC3)CC[C@@H]21,5.8,3.6,-2.8,i
CO[C@@H]1CN(C)C(=O)c2cc(NC(=O)C3CCC3)ccc2OC[C@@H](C)N(Cc2cccnc2)C[C@H]1C,-2.6,1.9,-0.1,i
C[C@@H]1CN([C@@H](C)CO)C(=O)c2cccc(NC(=O)C3CCCCC3)c2O[C@@H]1CN(C)Cc1ccccc1,3.2,-5.7,0.3,i
C[C@@H]1CN([C@@H](C)CO)S(=O)(=O)c2ccc(C3=CCCC3)cc2O[C@H]1CN(C)C(=O)CC1CC1,1.5,-11.3,-2.6,i
CCC(=O)N1[C@@H]2Cn3c(ccc(C4=CCCCC4)c3=O)[C@H]1[C@@H](C(=O)N[C@H](C)c1ccccc1)[C@@H]2CO,-5.4,-15.9,-1.1,i
C[C@@H]1CCCCO[C@H](CN(C)C(=O)C2CCCCC2)[C@@H](C)CN([C@@H](C)CO)C(=O)c2cc(NS(=O)(=O)c3ccccc3)ccc2O1,-2.7,-7.2,3.8,i
O=C(NCC(F)(F)F)[C@@H]1[C@@H](CO)[C@@H]2Cn3c(ccc(-c4cccnc4)c3=O)[C@@H]2N1Cc1ccncc1,0.7,-0.3,0.1,i
C[C@H](CO)N1C[C@H](C)[C@H](CN(C)C(=O)Nc2ccc3c(c2)OCO3)Oc2ccc(NS(C)(=O)=O)cc2CC1=O,2.6,3.5,-2.1,i
COc1ccc2c3c(n(C)c2c1)[C@@H](CO)N(Cc1ccccc1F)CC31CCN(CC2CC2)CC1,-3.3,-2.8,5.9,i
CCCN1C[C@H](C)[C@@H](OC)CN(C)C(=O)c2ccc(NC(=O)c3ccccc3)cc2OC[C@H]1C,-0.8,-7.6,1.1,i
C[C@@H]1CCCCO[C@H](CN(C)Cc2ccc(C(F)(F)F)cc2)[C@@H](C)CN([C@H](C)CO)C(=O)c2cc(NC(=O)CCCCCC(=O)Nc3ccccc3N)ccc2O1,4.0,11.0,3.6,i
O=S(=O)(c1ccc(F)cc1)N1CCCCN2[C@H](CO)[C@H](c3ccc(-c4cncnc4)cc3)[C@H]2C1,-1.8,4.9,3.5,i
COC(=O)C[C@H]1CC[C@H]2[C@@H](COC[C@H](O)CN2C(=O)Nc2cccc(F)c2)O1,-16.6,-22.8,0.5,i
Cc1cc(C(=O)Nc2cccc3c2O[C@H](CN(C)C)[C@H](C)CN([C@@H](C)CO)C3=O)n(C)n1,2.7,8.9,0.3,i
CN(C)CCCNC(=O)C[C@H]1CC[C@H]2[C@@H](COC[C@H](O)CN2CC2CCCC2)O1,3.1,17.1,-1.1,i
C[C@H]1CN([C@@H](C)CO)C(=O)CCCn2cc(nn2)CO[C@H]1CN(C)Cc1ccc(C(F)(F)F)cc1,-2.2,-6.3,-0.1,i
Cc1cccc(S(=O)(=O)N2CC[C@@H]3[C@H]2c2cc(-c4ccccc4F)ccc2N[C@@H]3CO)c1,0.4,-4.3,6.2,i
COc1ccc(S(=O)(=O)Nc2ccc3c(c2)C(=O)N([C@H](C)CO)C[C@@H](C)[C@H](CN(C)Cc2ccc4c(c2)OCO4)OCCCC[C@H](C)O3)cc1,6.5,-22.9,5.3,i
CC(C)C#Cc1cnc2c(c1)C(=O)N([C@@H](C)CO)C[C@@H](C)[C@H](CN(C)C(=O)Cc1ccncc1)O2,3.1,6.5,-4.5,i
Cc1noc(C)c1NC(=O)N(C)C[C@@H]1Oc2ccc(NS(=O)(=O)c3cccs3)cc2C(=O)N([C@@H](C)CO)C[C@H]1C,1.0,12.4,-0.3,i
